# Screening data from PubChem BioAssay.
# MT1-MMP act inh: MT1-MMP (human) activation inhibition; P50281; HT1080 RFP-PRO-GFP cells, GFP/RFP ratio fluorescence, overnight; percent of plate control window, DMSO zero; GFP/RFP ratio change, % at 20 µM; 360,000 tested, 0.061% active; AID 651647;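 active = GFP/RFP ratio change of at least 30% with cell ATP level not reduced by more than half and red fluorescence within 50% of control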; also: strong numbers were not always called active
#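 Material – HT1080 RFP-PRO-GFP cells · Control set – DMSO wells and RFP-L50D-GFP cells · Incubation – overnight cell settling, then overnight compound exposure, 37 °C, 5% CO2 · Compound dosing – single-point 20 µM compound, 1% DMSO · Read-out – GFP/RFP fluorescence ratio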
# UUG fidelity: alters start codon recognition fidelity in yeast. activity score, % at 18.7 µM. S. cerevisiae UUG-firefly luciferase reporter, luminescence/redox ratio. 350,000 tested, 0.13% active;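 active = replicate mean at a twofold rise or more, about +100% in these data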;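 also: firefly luciferase made from a UUG start codon reports start codon fidelity; reporter light over untreated wells divided by growth signal over untreated wells; some hits fall short of that in this replicate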
# PABP polyA inh: blocks human PABP binding to poly(A) RNA. P11940. inhibition, % at 35 µM. fluorescence polarization. 290,000 tested, 1% active;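 active = 50% or more with normal probe brightness, or confirmed in later tests; inconclusive = above 50% with abnormal brightness, or retests that disagree; inactive = below 50% or failed in later tests; about a fifth of its hits are not listed in these tables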;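 also: calls also rest on retests at 20 µM and on dose response follow-up; controls were probe without protein and protein plus probe with vehicle; some compounds called inactive have numbers as strong as hits; many hits fall short of the cut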
# Target sequence (P11940 whole entry, looked up): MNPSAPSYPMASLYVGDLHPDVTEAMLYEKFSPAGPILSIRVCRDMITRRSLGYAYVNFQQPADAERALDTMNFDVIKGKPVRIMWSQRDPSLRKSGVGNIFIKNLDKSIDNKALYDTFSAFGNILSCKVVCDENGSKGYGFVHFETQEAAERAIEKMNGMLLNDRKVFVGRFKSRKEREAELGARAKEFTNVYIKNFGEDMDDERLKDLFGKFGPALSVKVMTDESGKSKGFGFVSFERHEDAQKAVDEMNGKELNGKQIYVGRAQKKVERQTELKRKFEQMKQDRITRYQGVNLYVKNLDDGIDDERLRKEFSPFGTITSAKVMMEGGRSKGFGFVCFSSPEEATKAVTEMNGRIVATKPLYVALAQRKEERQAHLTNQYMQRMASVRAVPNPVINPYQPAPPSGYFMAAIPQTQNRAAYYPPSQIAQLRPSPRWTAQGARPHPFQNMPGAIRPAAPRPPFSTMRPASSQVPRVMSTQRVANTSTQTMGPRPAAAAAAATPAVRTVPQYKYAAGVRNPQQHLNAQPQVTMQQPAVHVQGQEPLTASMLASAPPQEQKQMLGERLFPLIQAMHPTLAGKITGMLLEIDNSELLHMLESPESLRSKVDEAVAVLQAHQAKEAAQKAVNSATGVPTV
# eIF4H FP inh: inhibitors of RNA binding by human eIF4H. AID 2012. Q15056. 290,000 tested, 0.94% active. eIF4H fluorescence polarization binding assay. inhibition, % at 35 µM;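 active = 50% or more with normal probe brightness, or confirmed in later tests; inconclusive = above 50% with abnormal brightness, or retests that disagree; inactive = below 50% or failed in later tests; about a fifth of its hits are not listed in these tables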;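 also: calls also rest on retests at 20 µM and on dose response follow-up; 0% = protein and probe with vehicle and 100% = probe without protein; strong numbers were not always called active; many hits fall short of the cut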
# Env fusion inh: blocks HIV Env-driven cell-cell fusion | 360,000 tested, 1.1% active | HeLa-JRFL Env/CEM21 cell fusion, luciferase | inhibition, % at 12.3 µM;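 active = mean replicate inhibition score of at least 50 and every replicate individually at or above 50; inconclusive = only one of the two criteria met; inactive = mean below 50 and not all replicates reaching 50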;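 also: 0% = plate neutral controls and 100% = maraviroc near 300 nM; one replicate is shown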
# CSC inhib: cancer stem cell inhibition; AID 2717; inhibition, % at 7.5 µM; 300,000 tested, 1.1% active; cancer stem cell-like cells viability, luminescence;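 active = mean at 75% or more and at least half the replicates too; inconclusive = mean and replicates disagree; tested in HMLE shEcad cells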;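 also: 0% = median of negative and 100% = median of positive control wells; the first replicate is given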
# Rce1 inh: inhibitors of yeast Ras-converting enzyme; yeast membranes, quenched prenylated peptide cleavage fluorescence; calls only; Q03530; 290,000 tested, 0.27% active;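 active = fall in fluorescence gain of 50% or more versus controls, with final raw signal at or below 3038400; inconclusive = same 50% fall but final raw signal above 3038400; inactive = fall in fluorescence gain under 50%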;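 also: plate controls were neutral control wells for no effect and wells lacking membranes for full effect; tested at 10 µM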
# eIF4H FP inh retest: also measured in eIF4H FP inh; calls as there; inhibition, %; compound at 20 µM; confirmation average;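 mean of two retest wells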
# PABP polyA inh retest: further read-out of PABP polyA inh, marked with its call; inhibition, %; compound at 20 µM; confirmation repeats;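 mean of two retest wells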
# MT1-MMP act inh RFP: recorded beside MT1-MMP act inh, whose call it bears; RFP signal change, %; measured here: RFP expression control read;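 0 = vehicle wells; hits needed this value within 50% of zero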
# * = called active by the depositor; i = inactive; ? = inconclusive; . = no result given. Some of the compounds tested, so the mix of outcomes need not match the whole.
SMILES,MT1-MMP act inh,MT1-MMP act inh RFP,UUG fidelity,PABP polyA inh,eIF4H FP inh,Env fusion inh,CSC inhib,Rce1 inh,others
Nc1nc(SCC(=O)Nc2ccc([N+](=O)[O-])cc2)[nH]c(=O)c1NC(=O)c1ccc(Br)cc1,-1,-2,-3,-2,-5,.,1,i,
CCOCCCNC(=O)C(c1ccccc1)N(Cc1ccc2c(c1)OCO2)C(=O)c1ccccc1O (configuration not stated),-3,2,.,8,-5,-10,-9,i,
CC12CCC(C(=O)Nc3ccc4c(c3)OCCO4)(OC1=O)C2(C)C (configuration not stated),1,-1,-8,-4,-4,-50,-8,i,
O=C(NCC1CCCO1)c1ccc2c(c1)N(Cc1ccccc1)C(=O)CS2 (configuration not stated),-5,-1,-21,.,.,-3,-16,i,
C/C(=N\NC(=O)Cn1c(-c2ccccn2)nc2ccccc21)c1ccccc1,4,4,.,-3,-10,-19,-12,i,
COc1ccc(C2NC(=O)NC(c3ccccc3)=C2c2nc3ccccc3s2)cc1 (configuration not stated),-11,-7,13,1,2,.,-6,i,
C/C(NC(=O)c1ccccc1)=C1/C(=O)CC2C1C2(C)C (configuration not stated),-4,-5,-21,4,10,.,70,i,
COc1ccccc1N1CCN(C(=O)c2oc3ccc(Br)cc3c2C)CC1,-11,-16,.,16,0,44,57,i,
FC(F)(F)c1nc2ccccc2nc1N/N=C\c1ccccc1,7,0,-19,13,-3,.,-7,i,
CCN(Cc1ccccc1)Cc1c(C)[nH]c2c(C)c(C)ccc2c1=O,0,-3,-18,-17,-8,-15,.,i,

# Next part, overlapping the part above by 3 compounds.
SMILES,MT1-MMP act inh,MT1-MMP act inh RFP,UUG fidelity,PABP polyA inh,eIF4H FP inh,Env fusion inh,CSC inhib,Rce1 inh,others
COc1ccccc1N1CCN(C(=O)c2oc3ccc(Br)cc3c2C)CC1,-11,-16,.,16,0,44,57,i,
FC(F)(F)c1nc2ccccc2nc1N/N=C\c1ccccc1,7,0,-19,13,-3,.,-7,i,
CCN(Cc1ccccc1)Cc1c(C)[nH]c2c(C)c(C)ccc2c1=O,0,-3,-18,-17,-8,-15,.,i,
COc1cc(C(=O)Nc2c(C(=O)O)[nH]c3ccccc23)cc(OC)c1OC,0,5,-13,16,-4,2,1,i,
O=C1c2ccccc2NC(c2ccc(F)cc2)N1Cc1ccco1 (configuration not stated),4,-2,-23,3,-8,-45,3,i,
Cc1c(NC(=O)c2cc3c(=O)n4ccccc4nc3s2)c(=O)n(-c2ccccc2)n1C,1,2,.,18,-6,-7,2,i,
O=C(N/N=C/c1cccc(Br)c1)c1ccc(Cn2cc(Br)cn2)o1,-3,-12,1,5,8,-10,0,i,
Cc1ccc(S(=O)(=O)Nc2ncccn2)cc1,-1,4,-23,1,8,0,-12,i,
F[B-](F)(F)c1cnc2ccccc2c1,3,6,-18,.,.,-143,.,.,
Cn1cc(C=O)c(-c2ccc3c(c2)OCCCO3)n1,-2,-2,-13,2,9,-28,32,.,
Cc1ccc(-n2ncc3c2CC(C)(C)CC3NC(=O)Cc2c(C)noc2C)cc1 (configuration not stated),7,-13,-19,-7,5,35,-12,i,
Cc1cc(NC(=O)CSc2nnc(-c3ccncc3)n2N)ccc1Br,0,2,-12,-6,-15,.,-4,i,
CCn1c(SC)nnc1-c1nn(-c2ccccc2)ccc1=O,1,3,-16,-2,0,-3,-29,i,
O=C(Nc1ccc(N2CCN(C(=O)c3ccc(Cl)cc3)CC2)cc1)c1ccc(Br)o1,5,-8,-16,11,3,.,.,i,
CC(C)OC(=O)CC1C(=O)NCCN1C(=S)NC(=O)c1ccccc1Cl (configuration not stated),2,-3,1,1,1,-4,-7,i,
CC1CCN(C(=O)c2ccc(S(=O)(=O)Cc3cccc(F)c3)c([N+](=O)[O-])c2)CC1,-7,-14,.,7,1,.,.,i,
S=C(S)N1CCCC1,0,1,-1,.,.,12,8,.,
CCN(CC)C(=O)[C@H]1CC(CC(=O)NCc2ccc(OC)c(OC)c2)C(=O)N2CCc3c([nH]c4ccccc34)[C@]12C (some centres not stated),1,2,-5,.,.,.,6,.,
CC(NC(=O)c1ccc(S(=O)(=O)N(C)C)cc1)c1ccc(-n2ccnc2)cc1 (configuration not stated),-1,-5,-27,38,12,5,3,i,
COc1cccc(NC(=O)CSc2nncn2N)c1,0,2,-4,5,1,.,-16,i,
COc1ccc([N+](=O)[O-])cc1NC(=O)CCN1CCN(c2ccccc2OC)CC1,-10,1,-2,115,4,9,-2,i,eIF4H FP inh retest=2;PABP polyA inh retest=24
CC1(C(=O)NCc2ccc(F)cc2)Oc2ccccc2NC1=O (configuration not stated),-5,-1,.,21,-7,8,2,i,
O=C(N/N=C\c1ccc([N+](=O)[O-])s1)C1COc2ccccc2O1 (configuration not stated),-1,-14,19,13,10,?,-6,i,
CN1CCN(C(=O)c2cc3nc(-c4ccc(Cl)cc4)cc(C(F)(F)F)n3n2)CC1,0,-12,-6,-7,-4,.,5,i,
O=[N+]([O-])c1cnc(Nc2ccccc2)nc1Nc1ccccc1,-4,-3,-11,2,-4,-46,6,i,
CC(C)Oc1ccc(/C=C(\NC(=O)/C=C/c2ccco2)C(=O)NCCc2nc3ccccc3[nH]2)cc1,-9,0,.,-19,-8,-1,-7,i,
O=C(COC(=O)c1ccco1)Nc1ccc2c(c1)OCCO2,.,.,-63,28,4,.,-3,i,
O=C(NCCOc1ccccc1F)C1CC(=O)N(c2ccc3c(c2)OCCO3)C1 (configuration not stated),0,8,-7,.,.,.,10,.,
COc1cc(NC(=S)NCCCN2CCOCC2)c(OC)cc1NC(=O)c1ccco1,-2,1,-20,-3,-9,8,-19,.,
O=C(NC(NC(=S)Nc1cccc(C(=O)O)c1)C(Cl)(Cl)Cl)OCc1ccccc1 (configuration not stated),3,4,-12,5,-6,.,-9,i,
Cc1cc(NC(=O)CSc2nnc(Cc3ccccc3)n2C)no1,3,6,-2,1,-1,-61,2,i,
CCc1ccc(C(=O)NNC(=O)c2cccc(S(=O)(=O)N3CCN(C)CC3)c2)cc1,1,1,7,.,.,-5,.,.,
CCSc1nnc(-c2sc3nnc(-c4ccccc4)c(-c4ccccc4)c3c2N)o1,-210,-6,-15,?,?,.,120*,i,

# The last 4 records of the part above are carried over, then new ones follow:
SMILES,MT1-MMP act inh,MT1-MMP act inh RFP,UUG fidelity,PABP polyA inh,eIF4H FP inh,Env fusion inh,CSC inhib,Rce1 inh,others
O=C(NC(NC(=S)Nc1cccc(C(=O)O)c1)C(Cl)(Cl)Cl)OCc1ccccc1 (configuration not stated),3,4,-12,5,-6,.,-9,i,
Cc1cc(NC(=O)CSc2nnc(Cc3ccccc3)n2C)no1,3,6,-2,1,-1,-61,2,i,
CCc1ccc(C(=O)NNC(=O)c2cccc(S(=O)(=O)N3CCN(C)CC3)c2)cc1,1,1,7,.,.,-5,.,.,
CCSc1nnc(-c2sc3nnc(-c4ccccc4)c(-c4ccccc4)c3c2N)o1,-210,-6,-15,?,?,.,120*,i,
CCOC(=O)c1[nH]c(C)c(C(=O)OCC(=O)N2CCCCC2C)c1C (configuration not stated),2,0,23,12,0,-2,3,i,
COc1ccc(CCNC(=O)CC(Cc2ccccc2)C(=O)O)cc1OC (configuration not stated),3,-6,-17,-5,3,8,-7,i,
Cc1cccn2cc(CCNS(=O)(=O)c3ccc4c(c3)OCCO4)nc12,2,1,-22,-4,2,-41,-1,i,
COc1cccc(Nc2nnc(SCc3nc4ccccc4s3)s2)c1,-2,4,-21,-10,-3,.,23,i,
CC(=O)Oc1ccc(C2(C)CC(C)(C)NC(=S)N2C)c(OC(C)=O)c1 (configuration not stated),-2,3,.,9,9,-2,-20,i,
O=C(Nc1ccc([N+](=O)[O-])cc1)c1cccc([N+](=O)[O-])c1,0,3,-11,.,.,28,.,.,
CCN(CC)S(=O)(=O)c1ccc(-n2cnc3cc(C)c(C)cc32)nc1,-2,-5,-16,3,-8,9,3,.,
CC(C)(C)n1nc2c(c1NC(=O)C1CC(=O)N(c3ccc(Cl)cc3)C1)CS(=O)(=O)C2 (configuration not stated),3,6,-7,-6,-7,9,-3,i,
CCCN[C@@H]1C(=O)N2C(C(=O)OCCC)=C(C)CS[C@H]12,3,6,2,6,5,-19,15,i,

# Two entries picked at random from those above, as already listed:
SMILES,MT1-MMP act inh,MT1-MMP act inh RFP,UUG fidelity,PABP polyA inh,eIF4H FP inh,Env fusion inh,CSC inhib,Rce1 inh,others
CC(C)OC(=O)CC1C(=O)NCCN1C(=S)NC(=O)c1ccccc1Cl (configuration not stated),2,-3,1,1,1,-4,-7,i,
CCOC(=O)c1[nH]c(C)c(C(=O)OCC(=O)N2CCCCC2C)c1C (configuration not stated),2,0,23,12,0,-2,3,i,
